# Beta2AR agonist: activates human beta-2 adrenergic receptor causing internalization. response, % (test concentration not listed). Am2.2-beta2AR cells, FAP receptor internalization, flow cytometry; reference of the scale not given here. 340,000 tested, 0.43% active. AID 504454;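 active = response above a set limit, near 3 SD of response in nonfluorescent compounds, cut at about 42% in these data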;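 also: stock transfer was 100 nL into about 11 µL; a reference agonist was the positive control; negative values mostly stem from fluorescent compounds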
# ALR inh: blocks human ALR sulfhydryl oxidase activity | purified ALR, DTT oxidation, H2O2 HRP-luminol luminescence | AID 485317 | 290,000 tested, 3.8% active | inhibition, % (test concentration not listed);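 active = mean and each replicate at 75% or more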;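 also: stock transfer was 7.5 nL into about 7.5 µL; 0% = neutral wells and 100% = wells with inactivated enzyme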
# Target sequence (P55789 whole entry, looked up): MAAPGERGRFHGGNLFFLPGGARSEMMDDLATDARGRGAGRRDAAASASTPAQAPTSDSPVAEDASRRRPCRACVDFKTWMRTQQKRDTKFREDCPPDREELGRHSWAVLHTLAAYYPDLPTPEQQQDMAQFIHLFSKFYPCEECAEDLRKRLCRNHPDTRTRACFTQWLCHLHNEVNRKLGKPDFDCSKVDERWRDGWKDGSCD
# UCH37 inh: blocks the human deubiquitinase UCH37; Q9Y5K5; purified proteasome/UCH37, Ub-AMC cleavage fluorescence; inhibition, % (no concentration beside the values); 330,000 tested, 0.33% active; AID 588478;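 active = mean of two replicates above 20%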;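 also: 0% = compound-free wells with enzyme and 100% = wells lacking proteasome; stock transfer was 100 nL into about 20 µL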
# Target sequence (Q9Y5K5 whole entry, looked up): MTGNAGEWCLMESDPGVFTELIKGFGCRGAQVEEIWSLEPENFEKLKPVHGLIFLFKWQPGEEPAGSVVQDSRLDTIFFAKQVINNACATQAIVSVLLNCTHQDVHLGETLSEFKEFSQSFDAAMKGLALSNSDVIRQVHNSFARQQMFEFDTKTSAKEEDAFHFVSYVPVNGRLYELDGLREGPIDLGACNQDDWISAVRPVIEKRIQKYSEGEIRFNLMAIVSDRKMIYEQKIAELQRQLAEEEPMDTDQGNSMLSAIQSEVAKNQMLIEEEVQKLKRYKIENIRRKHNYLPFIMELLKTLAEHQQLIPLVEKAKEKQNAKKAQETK
#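 Assay system: Proteasome-bound UCH37. Buffer or medium: pH 7.4 Tris-HCl (50 mM) with ovalbumin, ATP-MgCl2, DTT. Incubation: 30 min preincubation with enzyme, 25 min cleavage at room temperature. Measured by: fluorescence, ex 355 nm, em 460 nm. Read-out basis: percent inhibition. Control set: wells without proteasome as full block, compound-free enzyme plus substrate as uninhibited.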
# HNF4A DNA FP: change in binding of human HNF4 alpha to DNA | P41235 | HNF4a-FITC DNA binding, fluorescence polarization, 1 h | activity change, % at 10 µM | 360,000 tested, 0.3% active | AID 1224865; in the data active = activity change above about 30%, passing the limit was not always enough;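 also: controls were the assay level and a saturating level of protein; the project sought stronger binding though the title names inhibitors; some compounds called inactive have numbers as strong as hits; positive values seem to mean higher polarization but the record does not say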
# Target sequence (P41235 whole entry, looked up): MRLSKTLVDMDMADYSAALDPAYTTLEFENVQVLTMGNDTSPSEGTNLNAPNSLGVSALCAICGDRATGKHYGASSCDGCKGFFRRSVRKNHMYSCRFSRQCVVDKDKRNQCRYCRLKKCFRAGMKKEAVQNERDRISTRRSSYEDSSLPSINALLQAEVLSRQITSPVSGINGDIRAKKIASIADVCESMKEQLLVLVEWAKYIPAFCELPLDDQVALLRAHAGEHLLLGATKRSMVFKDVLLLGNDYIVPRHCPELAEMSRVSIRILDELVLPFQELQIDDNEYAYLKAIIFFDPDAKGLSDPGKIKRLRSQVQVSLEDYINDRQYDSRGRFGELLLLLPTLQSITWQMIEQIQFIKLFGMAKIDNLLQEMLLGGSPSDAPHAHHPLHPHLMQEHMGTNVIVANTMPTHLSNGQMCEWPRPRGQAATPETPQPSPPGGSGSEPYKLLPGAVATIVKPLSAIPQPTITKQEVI
# LANA-H2A inh: blocks KSHV LANA binding to histone H2A/H2B; Q9QR71; cell-free LANA-H2A/H2B peptide, fluorescence polarization; inhibition, % (no concentration beside the values); 320,000 tested, 0.6% active; in the data active = inhibition mostly above about 10%, no sharp cut-off; inactive = mostly below about 6.7%;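 also: stock transfer was 7.5 nL into about 10 µL; 0% = median of vehicle wells and 100% = median of positive control wells; one replicate is shown; the record names a cut of 25% in any replicate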
# Ecoli growth: blocks Escherichia coli growth; OD600 absorbance (test concentration not listed); AID 1053175; 330,000 tested, 0.21% active; OD600, 23 h; stronger effect = lower value;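 active = OD600 absorbance below the run mean of sample wells minus 3.6 SD, in any replicate, cut at about 0.56 in these data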;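 also: stock transfer was 300 nL into about 60 µL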
# FGF22 binding: FGF22 (human) thermal shift binding; recombinant FGF22 thermal shift, SYPRO orange fluorescence; percent of sucrose octasulfate shift, DMSO zero; calls only at 9.99 µM; 340,000 tested, 1.5% active;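 active = melting point raised past a set limit in the mean and every replicate; three in four hits are not shown here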
# Active calls of the source: *; i = inactive; . = no result given.
# The opening six entries as a preview:
SMILES,Beta2AR agonist,ALR inh,UCH37 inh,HNF4A DNA FP,LANA-H2A inh,Ecoli growth,FGF22 binding
Cc1cc(Oc2ccc(C(C)(C)C)cc2)nc(N2CCOCC2)n1,-3,21,2.8,-1.7,-6.6,0.81,.
Cc1ccc(C(=O)NCCCn2ccnc2)cc1C,1,4,1.1,0.8,-3.4,0.64,i
CCCc1nc2cc(Cl)c([N+](=O)[O-])cc2o1,-1,6,2.8,-1.3,6.4,0.67,i
Cc1nc(SCC#N)c2c3c(sc2n1)CCC3,-10,-6,1.5,2.3,1.0,0.73,.
OCCC1CN(Cc2ccc(F)cc2Cl)CCN1CCc1ccccc1 (centres undefined),-5,.,1.7,5.9,-2.2,0.69,i
CC(=O)c1cccc(NC(=O)COC(=O)[C@@H](NC(=O)OCc2ccccc2)C(C)C)c1,-1,.,1.6,-4.4,1.2,0.65,.

# Results (from the top)
SMILES,Beta2AR agonist,ALR inh,UCH37 inh,HNF4A DNA FP,LANA-H2A inh,Ecoli growth,FGF22 binding
Cc1cc(Oc2ccc(C(C)(C)C)cc2)nc(N2CCOCC2)n1,-3,21,2.8,-1.7,-6.6,0.81,.
Cc1ccc(C(=O)NCCCn2ccnc2)cc1C,1,4,1.1,0.8,-3.4,0.64,i
CCCc1nc2cc(Cl)c([N+](=O)[O-])cc2o1,-1,6,2.8,-1.3,6.4,0.67,i
Cc1nc(SCC#N)c2c3c(sc2n1)CCC3,-10,-6,1.5,2.3,1.0,0.73,.
OCCC1CN(Cc2ccc(F)cc2Cl)CCN1CCc1ccccc1 (centres undefined),-5,.,1.7,5.9,-2.2,0.69,i
CC(=O)c1cccc(NC(=O)COC(=O)[C@@H](NC(=O)OCc2ccccc2)C(C)C)c1,-1,.,1.6,-4.4,1.2,0.65,.
CC(C)(C)NC(=O)COC(=O)CCC(=O)c1cccs1,8,-8,2.4,-2.5,3.5,0.71,i
COc1ccc(C)cc1N(CC(=O)NCCN1CCOCC1)S(=O)(=O)c1ccccc1,6,-4,1.8,-2.5,-1.3,0.69,i
C=CCNC(=O)C(C)Sc1ccc(Cl)cc1 (centres undefined),-5,-4,1.6,2.4,0.8,0.69,.
N/C(=N\OC(=O)CCC1CCCC1)c1ccccn1,9,2,0.8,0.0,-1.6,0.7,.
CCOc1ccccc1OCCCC(=O)N1CCN(S(=O)(=O)c2ccc(C)cc2C)CC1,-10,-1,-1.7,3.4,0.5,0.69,i
COc1ccc(N(C)S(=O)(=O)c2cccc(C(=O)N3CCN(Cc4ccc5c(c4)OCO5)CC3)c2)cc1,11,.,0.5,1.0,.,0.69,i
O=C(CN(Cc1ccccc1)S(=O)(=O)c1ccccc1)N/N=C/c1ccc([N+](=O)[O-])cc1,-4,0,.,3.7,1.8,.,.
CC1(C)C(=O)Nc2ccccc2N1C(=O)COC(=O)c1cccnc1,3,-17,2.6,-0.9,2.9,0.69,i
CN(C)C(CNC(=O)Nc1cccc(Cl)c1)c1cccnc1 (centres undefined),-4,.,6.2,4.6,-1.0,0.7,.
O=Cc1cn(CC(=O)N2CCCc3ccccc32)c2ccccc12,6,1,5.9,1.2,1.2,0.74,.
CCC(C)n1nnc2c(=O)oc3ccccc3c21 (centres undefined),-5,0,2.4,0.4,3.9,0.63,i
O=C(CSc1nc(C2CCCCC2)n(-c2ccccc2)n1)NCCN1C(=O)CSC1=O,-15,-1,-1.5,-0.3,7.6,0.68,.
COC(=O)c1c(NC(=O)CCl)sc(C(=O)N2CCOCC2)c1C,25,-3,1.7,3.0,0.5,0.66,i
Cc1ccc(C)c(N2CCN(C(=O)c3ccc(Cl)c(NC4=NC5CS(=O)(=O)CC5S4)c3)CC2)c1 (centres undefined),7,4,-1.1,-2.0,-2.2,0.71,i
CC(C)(C)NC(=O)C(c1cccs1)N(Cc1ccc(F)cc1)C(=O)c1csnn1 (centres undefined),-6,9,2.3,4.7,-1.7,0.66,.
O=C(CCNS(=O)(=O)c1ccc(Br)s1)Nc1ccc(Cl)cc1,-14,-2,4.7,0.3,-0.3,0.71,.
CCOC(=S)SCC(=O)Nc1nc(-c2ccc(Br)cc2)cs1,11,99*,5.0,-0.7,-2.8,0.73,i
CCc1sc(C(=O)Nc2ccc(OC)c(S(=O)(=O)N3CCOCC3)c2)cc1C,4,.,5.7,-1.2,1.9,0.69,i
COc1ccc2[nH]c(=O)c(CN(CC3CCCO3)C(=S)Nc3cccc(C)c3)cc2c1 (centres undefined),21,4,-29,0.6,-3.8,0.66,i
Cc1c(C(=O)Nc2nccs2)oc2c(Cl)cccc12,-4,-1,1.5,7.9,-2.9,0.69,i
CCOC(=O)C1=CN(C)CCC1=O,-5,.,0.7,3.4,.,0.69,i
CC(C)(C)S(=O)(=O)c1cnc2c(-c3ccsc3)cnn2c1N,-7,.,-69,-0.5,.,0.73,i
Cc1cc(C)n(-c2cc(Oc3ccccc3)ncn2)n1,-60,-1,2.4,6.2,-2.3,0.7,.
CC(C)C1Oc2ccccc2N(CC(=O)N(Cc2ccccn2)CC2CCCO2)C1=O (centres undefined),-7,-6,3.9,5.2,-2.1,0.67,.
C[C@H]1CN([C@@H](C)CO)C(=O)c2cccc(NS(=O)(=O)c3ccc(Cl)cc3)c2O[C@@H]1CN(C)CC1CCCCC1,-7,-4,5.2,4.5,-2.7,.,i
CNS(=O)(=O)c1cccc(C(=O)OCC(=O)c2ccc[nH]2)c1,-1,1,1.4,-6.2,6.1,0.67,i
CCc1nnc(NC(=O)CSc2nc(C3CCCCC3)nc3ccccc23)s1,-25,-6,3.4,2.4,0.7,0.66,.
CC(Sc1nc2ccccc2s1)C(=O)c1c(N)n(C)c(=O)n(C)c1=O (centres undefined),-4,99*,1.8,-4.4,5.2,0.64,i
N#Cc1ccccc1OCC(=O)NNC(=O)CNC(=O)c1cccc(Br)c1,-7,.,2.5,1.5,1.2,0.67,i
C=CCn1c(SCC(=O)c2[nH]c(C)c(C(=O)OCC)c2C)nc2scc(-c3ccc(OC)c(OC)c3)c2c1=O,2,20,0.7,-0.1,-8.8,0.75,.
Cc1ccc(NC(=O)c2nsc(Cl)c2Cl)cc1,-7,2,-8.7,2.1,-1.5,0.66,i
Cc1ccc(-c2nc3ccccc3s2)cc1S(=O)(=O)N1CCOCC1,-3,-1,0.2,-1.1,0.2,0.73,.
Cc1cc(C(=O)NC(C)c2ccncc2)no1 (centres undefined),1,-3,3.8,-0.8,-1.8,0.68,i
Cc1ccc(S(=O)(=O)c2nnn3c2nc(N2CCOCC2)c2ccccc23)cc1,-13,-4,-20,4.5,1.4,0.68,i
COc1ccc(C2C(C#N)=C(N)Oc3cc(C)n(CCN4CCOCC4)c(=O)c32)cc1OC (centres undefined),4,1,4.4,-0.4,-5.7,0.66,.
CC(=O)Nc1ccc2nc(NC(=O)c3ccco3)sc2c1,-13,-2,3.5,-0.6,7.3,0.68,i
O=C(NCCCCc1ccccc1)C1CC(c2ccccc2[N+](=O)[O-])=NO1 (centres undefined),-8,-3,-0.8,3.1,-0.8,0.7,i
CC(C)N1C(=O)CCC1C(=O)NCCc1ccccc1 (centres undefined),16,0,1.8,-1.2,-5.7,0.75,.
COc1cc(OC)c(S(=O)(=O)N2CCCCC2)cc1S(=O)(=O)N1CCCCC1,0,-12,-6.2,-0.9,-4.4,0.71,.
C/C=C/c1ccc(OCCCCOc2ccccc2C(C)=O)c(OC)c1,-7,-14,2.1,1.1,-0.6,0.7,i
Oc1cccc(/C=N\Nc2nncc(-c3ccccc3)n2)c1,-10,31,.,-0.2,-1.1,.,i
NC(=O)COc1ccc(/C=N/NC(=O)C2CCCN2S(=O)(=O)c2ccc(Cl)cc2)cc1 (centres undefined),-7,-22,.,-3.8,2.1,.,.
CCN(CC)CCC(=O)N1c2ccccc2Sc2ccc(NC(=O)OC)cc21,9,38,4.2,-1.9,5.2,0.71,i
O=C(COC(=O)c1cccc(S(=O)(=O)NCc2ccccc2)c1)Nc1ccccc1OC(F)F,-27,-1,0.2,-2.1,-0.4,0.66,.
CC(=O)c1cccc(NC(=O)CN2CCc3cc4c(cc3C2)OCCCO4)c1,1,2,-7.7,3.1,4.4,0.69,i
COC(=O)c1sc2ccccc2c1-n1cccc1C(=O)C(=O)Nc1ccccc1,2,.,4.7,-1.3,0.9,0.82,.
Cc1ccc2c(CC(=O)NCC(=O)Nc3c(C)cccc3C)coc2c1,-5,9,0.9,-0.5,2.1,0.72,.
CN(c1ccc(O)cc1)c1nc(-c2cccnc2)cs1,-8,95*,2.3,-0.6,0.0,0.64,i
Cc1c(NC(=O)c2ccc(N(C)S(C)(=O)=O)cc2)c(=O)n(-c2ccccc2)n1C,8,1,-1.1,0.2,-5.5,0.67,i
Cc1ccc(CN=c2c([N+](=O)[O-])nn(-c3ccc4c(c3)OCCO4)n2O)cc1,-11,-14,5.0,-1.5,-6.3,0.69,.
COc1ccccc1NC(=S)NCc1ccccc1,5,-10,2.2,0.2,-8.8,0.7,i
CCCC(CCC(=O)OC)(C(=O)OCC)c1csc(N)n1 (centres undefined),11,2,2.5,-0.9,-12,0.68,.
Cc1no[n+]([O-])c1COc1ccc(/C=C2\NC(=S)NC2=O)cc1,2,-4,1.0,.,-2.7,0.76,.
CCCn1cc(SCC(=O)NCc2ccc3c(c2)OCO3)c2ccccc21,15,7,4.2,3.7,-4.5,0.73,i

# The closing 2 compounds of the part above lead into the next.
SMILES,Beta2AR agonist,ALR inh,UCH37 inh,HNF4A DNA FP,LANA-H2A inh,Ecoli growth,FGF22 binding
Cc1no[n+]([O-])c1COc1ccc(/C=C2\NC(=S)NC2=O)cc1,2,-4,1.0,.,-2.7,0.76,.
CCCn1cc(SCC(=O)NCc2ccc3c(c2)OCO3)c2ccccc21,15,7,4.2,3.7,-4.5,0.73,i
CNc1snc(C)c1C(=O)OCC(=O)N(C)Cc1ccccc1,2,-4,-0.7,3.3,-1.1,0.7,i
C=CCn1c(Cc2cccc3ccccc23)n[nH]c1=S,6,92*,1.1,2.8,-6.6,0.67,.
Cc1ccccc1OCCC(=O)N1CCN(S(=O)(=O)c2ccc(Cl)cc2)CC1,3,-5,4.3,1.6,-2.3,0.67,.
Cc1ccc(N2CC(C(=O)Nc3nnc(C)s3)CC2=O)cc1 (centres undefined),5,-2,2.3,3.1,4.0,0.66,i
COc1ccc(-c2noc(CCC(=O)Nc3cccnc3)n2)cc1,-4,-1,3.8,-1.5,8.8,0.66,i
COc1ccc(CCN(C(=O)c2ccc(F)cc2)C2=CC3CCC(C2)N3C)cc1OC (centres undefined),-1,-3,4.2,0.4,-2.8,0.7,.
COc1ccccc1NC(=O)CN1CCN(CC(=O)Nc2ccc3c(c2)OCO3)CC1,-6,28,1.4,3.0,-0.7,0.77,.
CCOP(=O)(OCC)c1nc(-c2ccc(OC)cc2)oc1N1CCOCC1,-2,.,-130,-0.5,6.2,0.65,i
CCN1CCN(CCCNC(=O)c2cc3sccc3n2CC)CC1,1,2,5.1,-0.9,1.9,0.76,i
CCOc1ccc(C(=O)Nc2ccc(CN3CCOCC3)cc2)cc1Br,-2,-8,4.5,-3.3,-0.4,0.63,i
CCOc1ccc2nc(COC(=O)c3cccs3)c(C(=O)c3ccccc3)[n+]([O-])c2c1,-6,-3,2.7,1.5,3.5,0.71,i
CC1=NN(c2ccccc2)C(=O)/C1=C\N(O)c1ccccc1,0,.,12,1.2,0.6,0.69,i
O=C(O)CCn1cnc2ccccc2c1=O,-3,-5,0.2,-1.7,-2.5,0.73,.
COc1ccc(NC(=O)[C@@H]2[C@@H]3C(=O)N(C4CCCCC4)C(=O)[C@@H]3C3c4ccccc4C=CN32)cc1 (some centres undefined),9,.,11,14,17*,0.77,.
CC12CC3(C)CC(C)(C1)CC(C(=O)NCc1ccccn1)(C2)C3,8,.,-1.7,1.1,3.0,0.68,.
Cc1onc(-c2ccccc2)c1C(=O)Nc1nnc(CC(C)C)s1,4,-2,-0.6,1.8,1.8,0.64,i
CC(C)CC(C)N1CCC(n2nccc2NC(=O)CCc2ccccc2)CC1 (centres undefined),7,-4,3.0,0.9,-7.0,0.72,i

# Bioassay records: PubChem BioAssay, several laboratories

# A portion of the library; rates above refer to the full screens.
